miR-21 FLuc – miR-21 reporter, rising signal. HeLa miR-21 FLuc reporter, luciferase, 48 h. AID 2288. 340,000 tested, under 10 active. Potency, µM (doses to about 38.3 µM), without a hit: at the highest dose reporter change, positive = more light; active = well fitted rising curve with a large enough effect; inconclusive = small, poorly fitted or top-dose-only effect; inactive = no such curve, though single readings can be large or run the other way;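 further: % of control where 0% means no effect; miR-21 action dims this reporter so a rising signal means less miR-21 action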
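Using DMEM plus 10% FBS, HeLa miR-21-FLuc cells are incubated with test compounds (final up to about 40uM) for 48 hours; firefly luciferase signal is then imaged following reagent-mediated lysis.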
GLA inh pH 4.5 – blocks human alpha-galactosidase A at pH 4.5. activity change, negative = inhibition, % at 105 µM. P06280. AID 1467. 230,000 tested, under 10 active. purified enzyme, 4-MU-alpha-Gal fluorescence, pH 4.5; inconclusive = small, poorly fitted or top-dose-only inhibition, or a rising curve; inactive = flat fitted curve, though single readings scatter; no compound was filed as active;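 further: 0% = full activity with enzyme and -100% = basal without enzyme; dose as in the result columns while the protocol names 77 µM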
Target sequence (P06280 whole entry, looked up): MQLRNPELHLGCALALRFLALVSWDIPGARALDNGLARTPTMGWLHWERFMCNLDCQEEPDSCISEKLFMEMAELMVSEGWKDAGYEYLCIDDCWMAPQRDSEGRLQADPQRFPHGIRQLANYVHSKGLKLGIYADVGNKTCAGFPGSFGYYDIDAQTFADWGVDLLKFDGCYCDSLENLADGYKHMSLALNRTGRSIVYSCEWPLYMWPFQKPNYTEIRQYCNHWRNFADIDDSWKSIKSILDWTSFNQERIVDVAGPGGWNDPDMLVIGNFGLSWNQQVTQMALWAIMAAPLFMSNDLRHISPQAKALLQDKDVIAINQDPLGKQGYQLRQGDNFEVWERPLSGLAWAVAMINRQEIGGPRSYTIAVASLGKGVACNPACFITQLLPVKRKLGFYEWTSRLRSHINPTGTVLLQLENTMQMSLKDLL
Rango complex inh – prevents formation of the Rango-importin beta complex; Rango CFP/YFP FRET sensor + importin beta, 45 min; 0.031% of 340,000 active; Potency, µM (top dose mostly 92.2 µM), for inactives: at the top dose inhibition of complex formation; Q14974; active = rising FRET ratio curve, often small or poorly fitted; inconclusive = mostly compound fluorescence or quenching in the first reads; inactive = flat curves in all reads;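 further: potency means the concentration at half of the fitted maximal effect; 0% = DMSO wells and 100% = buffer wells lacking importin beta; nearly all actives have a fitted effect of over 15% in size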
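Inhibition scored from the CFP 486 nm/YFP 530 nm FRET ratio 45 min after adding 0.125 microM importin beta to 50 nM Rango biosensor preincubated 5 min with compound (room temperature, PBS with DTT, Tween-20, BSA). No-importin wells as positive control.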
Rango dissoc inh – inhibitors of RanGTP-induced Rango-importin beta complex dissociation; O95149+P62826; Potency, µM (top dose mostly 46.1 µM), for the others: at the top dose activity change, negative = inhibition; Biochemical FRET Rango-importin beta, RanGTP-induced dissociation; 0.071% of 340,000 active; active means falling FRET ratio curve, often poorly fitted, with flat reads before Ran was added; inconclusive means other falling curves, or compound fluorescence or quenching; inactive means flat or rising ratio curve;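 further: potency means the concentration at half of the fitted maximal effect; % of control where 0% means no effect; nearly all actives have a fitted effect of over 45% in size; -100% = wells without RanGTP and RCC1; the record marks most hits as doubtful in a second field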
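Two FRET readings bracket the reaction: one 5 min after compound meets Rango–importin beta, another 45 min after RanGTP-RCC1 (0.6 uM Ran, 0.2 uM RCC1, 2 mM GTP) is added. Only the second defines inhibition.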
* marks the source's active call; other numbers are inactive results; ? = inconclusive; / = no result given; & = joins results of further samples; [ ] = another dose, or the depositor's remark.

SMILES	miR-21 FLuc	GLA inh pH 4.5	Rango complex inh	Rango dissoc inh
Cc1cccc(C(=O)NC2CC3CCCC(C2)N3S(=O)(=O)c2ccccc2)c1 (stereo unspecified)	16%	-4	-1.7%	-3%
CCOC(=O)Cc1csc(NC(=O)C2CCCCC2C(=O)O)n1 (stereo unspecified)	-1%	-2	0.1%	5%
C=CCNC(=O)C(=O)Nc1cc2c3c(c1)CCC(=O)N3CCC2	5%	/	5.2%	5%
CCOc1ccccc1NC(=O)c1ccc([N+](=O)[O-])cc1	-4%	4	/	/
COc1ccc(S(=O)(=O)N2CCN(C(=O)c3ccc(C)o3)CC2)cc1	1%	/	5.4%	-1%
CC(C)Nc1nnc(SCC(=O)Nc2sccc2C#N)s1	/	/	?	-3%
CCCCNC(=O)Cn1cnc2sc(C)c(S(=O)(=O)N3CCN(c4ccccc4OC)CC3)c2c1=O	-1%&8%	/	-4.8%	32%
COCCN=C1Sc2nc3ccc(C)cc3cc2CN1Cc1ccco1	-5%	-3	1.9%	-14%
Cc1[nH]c2ccccc2c1SCCNC(=O)c1ccc(Br)o1	7%	-9	3.6%	2%
C[C@]12CC[C@H](O)C[C@@H]1CC[C@@H]1[C@@H]2CC[C@@]2(C)[C@H]1CCC(=O)[C@]21CCCO1	/	/	-3.1%	-13%
Cc1onc(-c2ccccc2)c1NC(=O)Nc1ccc(OC(F)F)cc1	4%	-1	?	-1%
COc1cccc(C2C(C#N)=C(N)N(N(C)C)C3=C2C(=O)CCC3)c1 (stereo unspecified)	-4%	/	-3.2%	2%
COc1cc(CNc2ccc3[nH]c(=O)[nH]c3c2)ccc1OCc1ccccc1C	5%	/	4.7%	-9%
CCOc1ncccc1C(=O)OCc1ccc(Cl)cc1	-8%	-15	1.4%	-5%
COc1ccc(CCC(=O)NCCNC(=O)CCc2ccc(OC)cc2)cc1	-1%	/	-0.9%	-8%
O=C1C=CC(=O)N1Cc1cccnc1	/	/	8.2%	8%
O=C(NC1=NCCS1)c1ccc(Cl)cc1	-41%	/	-0.3%	5%
Cc1ccc(C(=O)O/N=C(\N)c2ccc(C(F)(F)F)cn2)cc1	-23%	/	4.7%	-7%
CCOC(=O)C1=C(CN2CCOCC2)NC(=O)NC1c1cccc([N+](=O)[O-])c1 (stereo unspecified)	4%	6	1.1%	12%
O=S(=O)(NCc1cccnc1)c1ccc(Cl)c2ccccc12	4%	/	0.8%	15%

Entries above containing two or more sulfur atoms, in the order listed:
SMILES	miR-21 FLuc	GLA inh pH 4.5	Rango complex inh	Rango dissoc inh
CC(C)Nc1nnc(SCC(=O)Nc2sccc2C#N)s1	/	/	?	-3%
CCCCNC(=O)Cn1cnc2sc(C)c(S(=O)(=O)N3CCN(c4ccccc4OC)CC3)c2c1=O	-1%&8%	/	-4.8%	32%

Next part.
SMILES	miR-21 FLuc	GLA inh pH 4.5	Rango complex inh	Rango dissoc inh
CC1=C(C(=O)OCc2ccccc2)C(c2cccc(Br)c2)NC(=O)N1 (stereo unspecified)	0%	/	4.1%	20%
CN(Cc1ccccc1)S(=O)(=O)c1ccc(NC(=O)C2CCCO2)cc1 (stereo unspecified)	-6%	-5	-1.0%	-7%
CC(=O)c1ccc(NC(=S)NCCCn2ccnc2)cc1	-7%	-4	?	15%
Cc1ccc(C(=O)c2cc([N+](=O)[O-])ccc2N2CCOCC2)cc1C	15%	-15	0.0%	7%
Cc1ccccc1NC(=O)Cc1nc(COC(=O)CCNS(=O)(=O)c2ccccc2)cs1	/	/	?	-7%
CC(C)(C)OC(=O)N1Cc2ccccc2C[C@H]1C(=O)NC1CCCC1	-1%	/	7.3%	16%
S=c1[nH]nc(CCSCc2ccccc2)n1-c1ccccc1	-12%	?	-3.3%	27%
CCC(CC)c1nnc(NC(=O)c2cc(-c3ccccc3)nc3ccccc23)s1	11%	-19	0.4%	-7%
Cc1cccc(NC(=O)CN2C(=O)C(C)Oc3ccccc32)n1 (stereo unspecified)	-5%	11	-0.3%	-6%
Cc1cc(C)c2nc(N3CCN(C)CC3)c(C#N)cc2c1	-9%	7	-0.5%	14%
O=C(NC1CCSc2ccccc21)c1ccccc1F (stereo unspecified)	-29%	/	-2.7%	-2%
COc1ccc(-n2c(COc3ccc(C)cc3)nnc2SCc2ccc(C#N)cc2)cc1	6%	2	2.5%	0%
Cc1cc(-c2n[nH]c(=S)n2/N=C/c2ccco2)n[nH]1	0%	1	1.5%	0%
CCOC(=O)Cc1nnc(NC(=O)CSc2ncc(-c3ccccc3)nn2)s1	-1%	-1	-1.1%	2%
Cc1cc(Cl)ccc1C(=O)C1CCCN(C(=O)c2ccsc2)C1 (stereo unspecified)	/	/	1.8%	19%
CCN(CC)S(=O)(=O)c1ccc(NC(=O)c2ccc(Cl)nc2)cc1	17%	-1	-3.7%	-5%
Cc1cc(C(=O)Nc2cccc(/C=C/C(=O)O)c2)c(C)o1	-15%	4	2.2%	?
Cc1ccc(C(C)(c2ccc(N)cc2)c2ccc(N)cc2)cc1	/	/	0.6%	-13%
COc1ccc(C(=O)Nc2cccc(OC(=O)c3ccc(C)c(C)c3)c2)cc1	-3%	-1	0.5%	13%
Cc1nnc(SCC(=O)Nc2sc3c(c2C#N)CCCCC3)n1N	-40%	7	1.5%	3%

Complete entries, quoted from the list. Order of screens: miR-21 FLuc, GLA inh pH 4.5, Rango complex inh, Rango dissoc inh
COc1cc(CNc2ccc3[nH]c(=O)[nH]c3c2)ccc1OCc1ccccc1C across the screens: 5%, /, 4.7%, -9%
Cc1nnc(SCC(=O)Nc2sc3c(c2C#N)CCCCC3)n1N across the screens: -40%, 7, 1.5%, 3%
CCOc1ccccc1NC(=O)c1ccc([N+](=O)[O-])cc1 across the screens: -4%, 4, /, /
O=S(=O)(NCc1cccnc1)c1ccc(Cl)c2ccccc12 across the screens: 4%, /, 0.8%, 15%
Cc1onc(-c2ccccc2)c1NC(=O)Nc1ccc(OC(F)F)cc1 across the screens: 4%, -1, ?, -1%

The results go on:
SMILES	miR-21 FLuc	GLA inh pH 4.5	Rango complex inh	Rango dissoc inh
CC(=O)Nc1ccc(NC(=O)c2c(C)nc3ccccn23)cc1	-10%	-12	0.1%	5%
O=C1CSc2ccc(C(=O)NCC(c3ccco3)N3CCCCC3)cc2N1 (stereo unspecified)	2%	2[21.1 µM]	-2.5%	15%
COc1cc(NC(=O)CSc2nnc3ccc(-c4ccncc4)nn23)cc(OC)c1	-5%	3	-2.3%	11%
C=CCNC(=O)NC(=O)COC(=O)/C=C/c1cccc([N+](=O)[O-])c1	1%	1	?	-26%
CC(C)c1ccc(CNC(=O)C2CC(=O)N(C3CCCCC3)C2)cc1 (stereo unspecified)	1%	/	2.5%	12%
CCCn1c(N)c(N(CCOC)C(=O)c2ccc(C#N)cc2)c(=O)[nH]c1=O	0%	/	7.1%	13%
O=C1C=C(O)CC(c2ccc(Cl)c(Cl)c2)C1 (stereo unspecified)	-6%	-6	0.2%	5%
COc1ccccc1NC(=O)NC1(C(=O)NCC2CCCO2)CCCCC1 (stereo unspecified)	-7%	/	8.2%	?
COc1ccc(S(=O)(=O)N2CCCC(C(=O)Nc3ccc(OC)c(OC)c3)C2)cc1 (stereo unspecified)	10%	-17	-0.6%	-2%
CN(C(=O)c1ccc(Br)o1)C1CCS(=O)(=O)C1 (stereo unspecified)	1%	/	-2.8%	-5%
Nc1cnc(CNc2ccccc2Cl)cn1	-32%	1	0.5%	22%
CCOC(=O)N1CCN(S(=O)(=O)c2cccs2)CC1	-5%	-13	1.8%	-3%
CCCCCN(C(=O)CCC(=O)OCC(=O)c1ccc(CCC)cc1)c1c(N)n(CCCC)c(=O)[nH]c1=O	/	/	?	0%
O=C(NCc1ccccn1)C(=O)NCC1OCCN1S(=O)(=O)c1ccc(F)cc1 (stereo unspecified)	-2%	/	2.3%	10%
CC(C)(C)CNc1cc(N2CCCC2)ccc1[N+](=O)[O-]	0%	0	-1.8%	3%
CNC(=S)NNc1ccccc1[N+](=O)[O-]	-11%	6	-1.8%	-5%
CC1(C)Cc2cccc(OCC(=O)OCC(=O)NCc3ccc(F)cc3)c2O1	/	/	-5.2%	37%
O=C(c1ccc(F)cc1)n1ccc(-c2cnc(-c3ccccc3)s2)n1	-49%	10	-0.2%	10%
COc1ccc(S(=O)(=O)Nc2cccc3c2O[C@H](CN(C)S(=O)(=O)c2ccc(F)cc2)[C@H](C)CN([C@H](C)CO)C3=O)cc1	/	/	-0.4%	9%
CC(C)(O)CNC(=O)C(Cc1ccccc1)N1C(=O)c2ccccc2C1=O (stereo unspecified)	-4%	/	0.3%	-3%
COCC(=O)N(Cc1nc2ccccc2c(=O)[nH]1)Cc1cccs1	-8%	-2	-3.2%	0%
COc1ccccc1C1CC(c2ccco2)=NN1S(C)(=O)=O (stereo unspecified)	-29%	5	?	-2%
CCN1C(=O)[C@@H]2[C@@H](c3ccc(-c4ccc5c(c4)OCO5)c(OC)c3)N3CCC[C@@]3(C(=O)OC)[C@@H]2C1=O	/	/	-2.4%	0%
COc1ccc(N=C2NN=C(c3c(C)[nH]c4ccccc34)CS2)cc1	?	-6	0.4%	34%
CC(=O)C1C(c2ccc([N+](=O)[O-])cc2)c2c(noc2C)CC1(C)O (stereo unspecified)	1%	4	-2.5%	-2%
COc1ccc(CCn2c(C)cc(C(=O)COC(=O)c3cnc(C)cn3)c2C)cc1	/	/	-1.3%	3%
NC(=O)COc1ccc(NC(=O)CC23CC4CC(CC(C4)C2)C3)cc1	-23%	/	0.5%	-6%
CCN(Cc1ccccc1)C(=O)c1ccc(Cl)cc1[N+](=O)[O-]	1%	1	-0.4%	0%
O=C(Oc1ccc(=O)n(-c2ccccc2)n1)c1ccc(Cl)cc1	-1%	-21	-4.0%	-4%
C[C@@H]1CC2[C@@H]3CC[C@H]4CC(=O)CC[C@]4(C)C3=CC[C@]2(C)[C@@]1(O)C(=O)CO (stereo partly specified)	-3%	/	-2.3%	8%
CCN(CC)c1ccc(NC(=O)c2[nH]c(C)c(C(C)=O)c2C)c(C)c1	-2%	3	0.9%	1%
CC(=O)C(Cc1ccccc1)NC(=O)CN1c2cccc3cccc(c23)S1(=O)=O (stereo unspecified)	/	/	-0.5%	3%
CCOC(=O)Nc1sc(C)c(C)c1C(=O)OCC	-2%	-8	-1.1%	-8%
CCOC(=O)c1nn(-c2ccccc2F)c(-c2ccccc2)c1C(=O)c1ccccc1	11%	-4	4.5%	0%
CCCCCCCNC(=O)CN1N=C(c2ccc(C)cc2)CCC1=O	-3%	/	0.9%	-2%
CCOc1ccc(-n2c(SCc3ccc(C(=O)OC)o3)nc3c(c2=O)SCC3)cc1	-1%	-5	2.8%	4%
CCOc1ccc(S(=O)(=O)NCCC(=O)N(C)Cc2cccs2)cc1	/	/	-0.5%	-6%
O=C1c2ccccc2C(=O)c2c1ncn2-c1ccccc1	-2%	0	0.5%	-16%
CCN1C(=NCCc2ccc(Br)cc2)N[C@@H](c2ccccc2)[C@H](C(=O)OC)[C@H]1C	?	/	-0.5%	4%
Cc1cc(C)cc(OCC(=O)OCc2nnc(-c3ccccc3)o2)c1	2%	5	-2.8%	6%
Cc1ccc(C(=O)Nc2nnc(-c3ccncc3)o2)cc1	-26%	-14	0.2%	-14%
Fc1ccc(N/N=C/C=C/c2ccccc2)c(F)c1	-52%	6	1.2%	21%
O=C(/C=C/c1ccccc1)NCCc1ccccc1	-18%	6	-0.1%	1%
O=C(OCn1nnc2ccccc2c1=O)C1CCN(S(=O)(=O)c2cccs2)CC1	-7%	-28	0.1%	5%
CCc1ccc2c(c1)C(O)(CC(=O)c1cccs1)C(=O)N2 (stereo unspecified)	-1%	5	5.7%	18%
O=C1NC(c2ccccc2)Nc2c1sc(=S)n2-c1ccccc1 (stereo unspecified)	6%	1	-2.5%	14%
Cc1ccc(NC(=O)CCCc2ccccc2)c([N+](=O)[O-])c1	-47%	/	4.3%	2%
O=C(N/N=C/c1c(Cl)[nH]c2ccccc12)c1sc2ccccc2c1Cl	25%	-10	?	-4%
C/C(=N/N=C(/C)c1cccs1)c1cccs1	-51%	/	?	-4%
CCc1noc(C)c1C(=O)N(C)CC(=O)Nc1ccccc1Br	/	/	-1.3%	-4%
O=C1CC(C(=O)O)NC(=S)N1 (stereo unspecified)	/	/	-2.3%	-1%

Assay outcomes: PubChem BioAssay, National Center for Advancing Translational Sciences (NCATS)

A portion of the library (hit frequency here may not be typical).
